# liver stage – exo-erythrocytic parasite development inhibition – imaging, Malaria Box, P. yoelii, HepG2-A16-CD81EGFP, dose response (AID 602156); P. yoelii liver stage in HepG2-A16-CD81EGFP, imaging; first-round cut-off not given here; calls after a first round at 10 µM; hits with a dose series show IC50 in µM; actives 4.8% (n = 5,700); in the data active = a potency from the dose series;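 also: infected cells exposed to compound for 48 hours before fixation; stained parasite area by imaging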
# The depositor's hits bear a star; i = inactive. Only part of the results is shown; the hit share may differ from the screen's.
SMILES,liver stage
CC(C)[C@@]1(NC(=O)[C@@H]2C[C@@H]3c4cccc5[nH]cc(c45)C[C@H]3N(C)C2)O[C@@]2(O)[C@@H]3CCCN3C(=O)[C@H](CC3CCCCC3)N2C1=O,i
C=C[C@H]1CN2CC[C@H]1C[C@H]2[C@H](OC(=O)c1cccc([N+](=O)[O-])c1)c1ccnc2ccccc12,i
CCCN[P+](CC(C)C)(NCCC)NCCC,0.281µM*
CCn1nc(/C=C/c2ccccc2)nc2c(=O)n(C)c(=O)nc1-2,i
C=CC1CN2CCC1C(C(O)c1ccnc3ccc(OC)cc13)C2 (stereo not drawn),i
C=C[C@H]1CN2CC[C@H]1C[C@H]2[C@H](OC(=O)CCC)c1ccnc2ccccc12,i
COc1cc2c3c(c4cc(OC)c(OC)cc4c2cc1OC)CN1CCC[C@@H]1C3,i
CS/C(Cl)=C(/NC(C)=O)[P+](c1ccccc1)(c1ccccc1)c1ccccc1,i
C=CC1CN2CCC1CC2[C@@H](OC(=O)c1ccc(OC)cc1)c1ccnc2ccccc12 (stereo partly drawn),i
O=c1c2ccccc2nc(/C=C/c2ccc([N+](=O)[O-])o2)n1-c1ccc(Br)cc1,i
C/C=C1/C[C@H]2[C@@H](OC)Nc3cc(O)c(OC)cc3C(=O)N2C1,i
CC1CCC2C(C)C(=O)OC3OC(C)C4CC1C32OO4 (stereo not drawn),i
OP1(O)=NP(O)(O)=NP(O)(O)=NP(O)(O)=N1,i
O=C1CN=C(c2ccccc2)c2cc(Cl)ccc2N1Cc1cc(=O)n2ccccc2n1,i
C=C[C@H]1CN2CC[C@H]1C[C@@H]2[C@@H](OC(=O)C1CC1)c1ccnc2ccccc12,i
C=C[C@H]1CN2CC[C@H]1C[C@H]2[C@H](OC(=O)c1ccc(Cl)cc1)c1ccnc2ccccc12,i
c1ccc(CCNC2CCN(Cc3ccccc3)CC2)cc1,i
CN(C)C(=O)O[n+]1ccc(N(C)C)cc1,i
C=CC1CN2CCC1CC2C(OC(C)=O)c1ccnc2ccc(OC)cc12 (stereo not drawn),i
Cc1c2ccccc2c(C)c2ccccc12,i

# Six compounds drawn at random from the list so far, as already listed:
SMILES,liver stage
O=c1c2ccccc2nc(/C=C/c2ccc([N+](=O)[O-])o2)n1-c1ccc(Br)cc1,i
CS/C(Cl)=C(/NC(C)=O)[P+](c1ccccc1)(c1ccccc1)c1ccccc1,i
C=CC1CN2CCC1CC2C(OC(C)=O)c1ccnc2ccc(OC)cc12 (stereo not drawn),i
CC1CCC2C(C)C(=O)OC3OC(C)C4CC1C32OO4 (stereo not drawn),i
Cc1c2ccccc2c(C)c2ccccc12,i
C=C[C@H]1CN2CC[C@H]1C[C@H]2[C@H](OC(=O)c1ccc(Cl)cc1)c1ccnc2ccccc12,i

# Returning to the listing; the 3 compounds before the break are reprinted first.
SMILES,liver stage
CN(C)C(=O)O[n+]1ccc(N(C)C)cc1,i
C=CC1CN2CCC1CC2C(OC(C)=O)c1ccnc2ccc(OC)cc12 (stereo not drawn),i
Cc1c2ccccc2c(C)c2ccccc12,i
COC1=CC(C)=C[C@@H](C)[C@@H](O)[C@H](C)CC(C)=CC=C[C@H](OC)[C@@H](C(C)C(O)[C@H](C)[C@@]2(O)C[C@@H](O)[C@H](C)[C@@H](C(C)C)O2)OC1=O (stereo partly drawn),i
O=C(Cn1c2ccccc2c(=O)c2ccccc21)Nc1ccc([N+](=O)[O-])c(Br)c1,i
C=C[C@H]1CN2CC[C@H]1C[C@@H]2[C@@H](OC(=O)CCCCl)c1ccnc2ccccc12,i
Cc1ccc(CN2C3CCCC2CC(NC(=O)Nc2cccc(F)c2)C3)cc1 (stereo not drawn),i

# Part of the list above in order of heavy-atom count, highest first.
SMILES,liver stage
COC1=CC(C)=C[C@@H](C)[C@@H](O)[C@H](C)CC(C)=CC=C[C@H](OC)[C@@H](C(C)C(O)[C@H](C)[C@@]2(O)C[C@@H](O)[C@H](C)[C@@H](C(C)C)O2)OC1=O (stereo partly drawn),i
O=C(Cn1c2ccccc2c(=O)c2ccccc21)Nc1ccc([N+](=O)[O-])c(Br)c1,i
C=CC1CN2CCC1CC2C(OC(C)=O)c1ccnc2ccc(OC)cc12 (stereo not drawn),i
